# Source: PubChem
# CtBP-E1A blk – inhibitors of CtBP/E1A interaction; AlphaScreen GST-E1A/His-CtBP binding, 1536-well; hits give low values; control for the full effect not named in the record; 0.49% of 340,000 active; activity change, % (concentration not given with the values); in the data active means activity change below about -65%; inconclusive means about -30% to -65%; inactive means above about -30%; note: % is set by controls: 0 for no effect and ±100 for the full control effect
#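 Steps: dispense buffer (Tris pH 8.0, NaCl 300 mM, TCEP 1 mM, BSA, Tween 20); add 5X protein mix (GST-E1A, His-CtBP, 125 nM each); pin 23 nL compound; 2 h at 37 °C, dark; add 5X beads (50 ug/mL); 1 h; read.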
# TRPV1 potentiator – human TRPV1 potentiation; Q8NER1; TRPV1-expressing cells, Fluo-8 calcium influx, capsaicin EC20 potentiation; host cell line not named in the record; control for the full effect not named in the record; potentiation, % at 8.33 µM; 0.02% of 320,000 active; AID 540277; active means potentiation above 80%; inconclusive means 30% to 80%; inactive means below 30%; note: 0% is about no effect
#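 TRPV1-expressing cells were cultured overnight at 35.5C and loaded with Fluo-8 calcium dye for 40 to 90 min at room temperature. After a 10 s baseline, compound was added and calcium influx was read kinetically for 3 min (ex 480/em 520 nm).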
# Six1-Eya2 inh – inhibitors of human Six1/Eya2 interaction; AID 651725; 0.56% of 360,000 active; Q15475+O00167; activity change, % (test concentration not listed); AlphaScreen GST-Six1/His-Eya2 binding, biochemical; hits give low values; control for the full effect not named in the record; in the data active = activity change below about -65%; inconclusive = about -30% to -65%; inactive = above about -30%; note: % is set by controls: 0 for no effect and ±100 for the full control effect; compound concentration not given in the record
#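 GST-Six1 + His-Eya2 (5X stock: 250/500 nM); Tris pH 8.0, 300 mM NaCl, 0.05% BSA, 0.02% Tween 20; GSH donor/Ni acceptor beads; 1 h 37 °C dark; AlphaScreen readout.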
# D2 ag – agonists of human D2 dopamine receptor (beta-arrestin) | P14416 | DiscoveRx PathHunter D2 beta-arrestin, luminescence, 90 min; 100% = 57 uM dopamine signal | activation, % (no concentration beside the values) | 0.084% of 360,000 active; in the data active = activation above about 40%; inconclusive = about 15% to 40%; inactive = below about 15%; note: compound concentration not given in the record; the text of the record calls up to 30% inactive
# Target sequence (P14416 whole entry, looked up): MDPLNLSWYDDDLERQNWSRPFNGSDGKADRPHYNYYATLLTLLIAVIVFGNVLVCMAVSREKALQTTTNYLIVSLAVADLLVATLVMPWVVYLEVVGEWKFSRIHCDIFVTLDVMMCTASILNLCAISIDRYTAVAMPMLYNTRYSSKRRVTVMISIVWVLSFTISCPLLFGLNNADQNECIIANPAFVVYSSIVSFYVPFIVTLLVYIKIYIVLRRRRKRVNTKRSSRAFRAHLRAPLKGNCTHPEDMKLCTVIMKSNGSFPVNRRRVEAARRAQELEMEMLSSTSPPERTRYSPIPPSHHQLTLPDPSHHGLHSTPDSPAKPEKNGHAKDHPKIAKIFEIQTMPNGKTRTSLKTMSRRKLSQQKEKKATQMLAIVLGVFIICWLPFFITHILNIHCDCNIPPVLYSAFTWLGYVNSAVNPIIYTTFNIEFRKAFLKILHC
#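 DiscoveRx PathHunter D2 beta-arrestin cells (2,100/well) attached overnight, then compound-stimulated 90 min at 37 C in HBSS/10 mM HEPES/0.1% Tween-20 buffer; beta-galactosidase complementation read by luminescence after 1 h at ambient temperature. Dopamine 57 uM final (EC100) as control.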
# Sfp inh – inhibitors of Bacillus subtilis Sfp phosphopantetheinyl transferase; Potency, µM, for inactives: max response, negative = inhibition, usual class: inhibitors; Biochemical Sfp PPTase activity, qHTS; AID 1490; 3.5% of 310,000 active; active = well fitted inhibition curve with a large enough effect; inconclusive = small, poorly fitted or top-dose-only effect, or another doubt; inactive = no such curve, though single readings can be large or run the other way;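 note: the enzyme is Sfp with the accession as filed and its product quenches rhodamine fluorescence; potency is the fitted concentration of half-maximal effect; 0% = enzyme reaction without inhibitor and -100% = no enzyme wells; top concentration of the series not given in the record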
#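 After 15 min at room temperature with compound, 15 nM Sfp received 5 uM rhodamine-CoA plus 12.5 uM BHQ-2-ybbR (50 mM Hepes pH 7.6, 10 mM MgCl2). Rate came from the fluorescence difference over 30 min, ex 525/em 598 nm.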
# PINK1 expr mod – changes PINK1 expression; PINK1 immunofluorescence, high-content cytometry, 24 h; Potency, µM (top dose mostly 76.6 µM), without a hit: top-dose activation (PINK1 increase), hits mostly activators; 0.2% of 410,000 active; active = well fitted activation curve with a large enough effect; inconclusive = small, poorly fitted or top-dose-only effect; inactive = flat fitted curve, though single readings scatter; cell line not stated here;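 note: potency is the fitted concentration of half-maximal effect; % of control where 0% means no effect; nearly all actives have a fitted effect of over 65% in size; a mitochondrial uncoupler was the plate control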
#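 Fluorescence from anti-PINK1 antibody, together with nuclear and cell stains, was scanned on a laser-scanning cytometer. Before staining, stable-line cells were incubated 24 hours with compounds at 5 concentrations; primary antibody 12 h at 10 degrees C.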
# D2 PAM – human D2 receptor positive allosteric modulation; DiscoveRx D2 beta-arrestin cells, luminescence, 90 min; 100% = 57 uM dopamine signal; potentiation, % (concentration not given with the values); 0.23% of 360,000 active; AID 624464; active = potentiation of 50% or more; inconclusive = 30% to 50%; inactive = 30% or less;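 note: compound concentration not given in the record; tested on top of an EC20 dose of dopamine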
#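 PathHunter beta-arrestin assay in DiscoveRx D2 cells. Compounds were added with an EC20 of dopamine (50 nM final) for 90 min at 37 deg C. Luminescence was read 1 h after detection reagent, with 57 uM dopamine as the EC100 control.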
# An asterisk follows results filed as active; ? = inconclusive; / = not tested or not shown; [ ] = remark or other dose. Random draw from the library. About 3.7% of those tested had a hit in this group.
# Sequence of screens: CtBP-E1A blk | TRPV1 potentiator | Six1-Eya2 inh | D2 ag | Sfp inh | PINK1 expr mod | D2 PAM
- CC1(c2cc([N+](=O)[O-])cc([N+](=O)[O-])c2)CC(C)(C)N(C(=O)c2ccccc2)c2ccccc21 (stereo unspecified)
 : ? | 4 | ? | 1.9 | 9% | -1.1% | ?
- O=C(O)c1cc2ccccc2c(N=Nc2cccnc2)c1O
 : 0 | 15 | -10 | -4.2 | 8% | -1.4% | 3
- Cn1c(=O)c2[nH]c(C(O)c3ccc(Cl)cc3)nc2n(C)c1=O (stereo unspecified)
 : -24 | / | 4 | 1.9 | / | -1.9% | 2
- Cc1cc(C)c2nc(SCC(=O)Nc3ccccc3N3CCOCC3)c(C#N)cc2c1
 : -1 | / | 0 | -6.2 | / | 10% | 1
- CCCCNC(=O)c1ccc(SCC(=O)N(CC)CC)c([N+](=O)[O-])c1
 : -3 | -7 | 19 | -8.3 | 9% | -0.7% | -5
- O=C(COc1ncnc2sccc12)Nc1ccc(F)cc1F
 : / | 8 | 5 | -6.3 | 31%[activator] | 2.7% | -5
- O=C(O)c1cc(S(=O)(=O)N2CCOCC2)c(Sc2ccccn2)cc1Sc1ccccn1
 : 9 | 5 | -1 | -0.7 | 11% | -2.0% | 15
- CC1CCN(c2nc3c(c(=O)[nH]c(=O)n3C)n2Cc2ccccc2)CC1
 : 4 | -23 | -1 | -3.9 | 21% | 4.4% | -5
- O=c1c2ccc([N+](=O)[O-])cc2ncn1CCOc1ccccc1
 : -8 | 7 | ? | ? | 6% | 0.8% | 23
- Cc1ccc2cc(C#N)c(N3CCCN(S(=O)(=O)c4ccccc4)CC3)nc2c1
 : 46 | 3 | 34 | -3.3 | -7% | -3.8% | -4
- Cc1nn(C)c(C)c1CN(Cc1nc(CCC(C)C)no1)C(C)C
 : -5 | 4 | 7 | 4.8 | 14% | 1.2% | -11
- N#C/C(=C\c1ccc(O)cc1)C(=O)N1CCCC1
 : -2 | 17 | -3 | -9.7 | 14% | 0.3% | -5
- COc1ccccc1C1CC(c2ccccc2)=NN1C(=S)Nc1ccccc1 (stereo unspecified)
 : -17 | 21 | -4 | -5.5 | -23% | 3.0% | -5
- Cn1nc(C(=O)N2CCCc3ccccc32)c2ccccc2c1=O
 : 8 | -8 | -12 | -1.2 | 12% | 2.5% | -10
- CCn1cc([N+](=O)[O-])c(C(=O)N2N=C(c3ccc(OC)cc3OC)CC2c2ccccc2O)n1 (stereo unspecified)
 : 2 | 24 | -19 | -4.1 | -16% | -2.6% | -15
- S=c1[nH]nc(-c2cc(-c3ccccc3)n[nH]2)n1/N=C/C=C/c1ccccc1
 : -12 | / | -9 | -9.7 | -2% | 9.1% | -18
- CCCCCCCCS(=O)CCC(=O)O (stereo unspecified)
 : 3 | 10 | -1 | 0.1 | 5% | 1.4% | -5
- O=C1Nc2cc(Cl)c(Cl)cc2N(O)N1c1ccccc1
 : -6 | -6 | 4 | 0.9 | 11% | / | 7
- O=C(c1ccncc1)N1CCN(c2ccc3ccccc3n2)CC1
 : -1 | -14 | 4 | -3.4 | 29% | 3.8% | -1
- CCOC(=O)c1c(C)nc2sc(C(N)=O)c(N)c2c1-c1ccc(OC)cc1
 : -2 | 10 | -5 | -2.5 | -18% | -2.2% | -12
- COc1cc(/C=C/CNC[C@H]2O[C@@H](n3ccc(=O)[nH]c3=O)[C@H](O)[C@@H]2O)ccc1O
 : 1 | / | -2 | -1.8 | / | -0.3% | -2
- COc1cccc(CN2C(=O)CN(C3CCCCC3)C(=O)C2c2ccc(F)cc2)c1 (stereo unspecified)
 : -1 | 2 | -3 | -4.2 | -1% | 6.4%[38.3 µM] | -6
- Cc1cc(OC(C)C(=O)NCCN2CCOCC2)c2c(C)cc(=O)oc2c1 (stereo unspecified)
 : 3 | -1 | 3 | -0.4 | 26% | -0.1% | -24
- NS(=O)(=O)c1ccc(CCNC(=O)NC2CCCCC2)cc1
 : -1 | 7 | 2 | -7.4 | 21% | -0.5% | -3
- Cc1cccc(N2CC(C(=O)Nc3cccc(S(=O)(=O)N4CCCCC4)c3)CC2=O)c1C (stereo unspecified)
 : -8 | 21 | -6 | 1.3 | / | 1.0% | 1
- Cc1cnc(CN(C)C(=O)c2cc(COc3c(F)cccc3F)on2)[nH]1
 : -13 | 1 | -10 | -4.0 | 9% | 1.1% | -1
- Cc1ccc(C(=O)Nc2ccccc2NC(=O)c2ccc(C)o2)o1
 : 0 | 20 | -1 | -2.3 | 15% | -0.1% | -5
- Nc1nonc1C(=O)N/N=C/c1cc(Br)ccc1O
 : -92* | -15 | -93* | 0.6 | -7% | 0.8% | 0
- OCc1cccc(-c2csc(C(O)c3ccco3)n2)c1 (stereo unspecified)
 : -24 | / | -7 | 8.0 | / | 0.1% | -2
- Cc1nc2ccccc2n1CCC(=O)O
 : 4 | 8 | -1 | 0.0 | 8% | / | 21

# Overlap with the part before: five compounds, followed by the next part.
molecule,CtBP-E1A blk,TRPV1 potentiator,Six1-Eya2 inh,D2 ag,Sfp inh,PINK1 expr mod,D2 PAM
Cc1cnc(CN(C)C(=O)c2cc(COc3c(F)cccc3F)on2)[nH]1,-13,1,-10,-4.0,9%,1.1%,-1
Cc1ccc(C(=O)Nc2ccccc2NC(=O)c2ccc(C)o2)o1,0,20,-1,-2.3,15%,-0.1%,-5
Nc1nonc1C(=O)N/N=C/c1cc(Br)ccc1O,-92*,-15,-93*,0.6,-7%,0.8%,0
OCc1cccc(-c2csc(C(O)c3ccco3)n2)c1 (stereo unspecified),-24,/,-7,8.0,/,0.1%,-2
Cc1nc2ccccc2n1CCC(=O)O,4,8,-1,0.0,8%,/,21
CC(=O)O/N=C(\N)Cc1ccc(-c2csnn2)cc1,/,4,5,-2.6,14%,3.9%,-11
CCOc1ccc(CCN2C(=O)C(=O)N([C@@H](Cc3ccccc3)CN3CCC[C@@H]3CN3C(=O)C(=O)NC[C@@H]3Cc3ccc(O)cc3)C[C@@H]2Cc2ccccc2)cc1,0,/,6,6.1,/,1.0%,-8
CNC(=O)CSc1nc2[nH]ncc2c(=O)[nH]1,6,-1,4,0.5,24%,1.8%,-3
Cn1nc(C(F)(F)F)c(-c2cccc(C(F)(F)F)c2)c1NC(=O)c1ccco1,2,-8,-2,-3.0,14%,0.0%,-5
Cc1ccc(NC(=O)C2CCCN2S(=O)(=O)c2ccc3c(c2)n(C)c(=O)c(=O)n3C)c(C)c1 (stereo unspecified),-3,0,-4,0.6,2%,-1.2%,-1
CC(=O)c1cc(CC=C(C)C)c(O)c(CC=C(C)C)c1O,9,-13,11,-5.5,14%,7.5%,-4
CCC(C)NS(=O)(=O)c1ccc(OCC(=O)NCc2cccnc2)cc1 (stereo unspecified),6,0,0,-3.2,8%,3.7%,-5
O=C(CCCCC(=O)OCC1COCO1)OCC1COCO1 (stereo unspecified),10,/,3,0.1,/,1.1%,-3
CS(=O)(=O)NN1C(=O)c2ccccc2NC1c1ccccc1 (stereo unspecified),/,-6,-5,-0.7,14%,0.1%,-2
CC(C)(O)C#Cc1ccc(C(=O)N2CCN(c3ccc(Cl)cc3)CC2)cc1,/,-11,1,8.8,3%,2.4%,-4

# New compounds follow
molecule,CtBP-E1A blk,TRPV1 potentiator,Six1-Eya2 inh,D2 ag,Sfp inh,PINK1 expr mod,D2 PAM
CN=C1NN=C(c2cc(C)n(-c3ccc(Cl)cc3)c2C)CS1,-3,8,0,-0.8,35µM*,3.1%,-4
CCOC(=O)C1CCN(S(=O)(=O)c2ccc(-c3ccccn3)s2)CC1,4,-14,2,-4.7,11%,1.3%,-5
OC1(c2ccc3c(c2)OCO3)CCN(Cc2ccccn2)CC1,-22,-2,-11,-1.5,-12%,-1.9%[38.3 µM],-7
CSc1ccc(/C=C(/NC(=O)c2ccco2)C(=O)N2CCCCCC2)cc1,-3,7,-5,0.5,-8%,1.1%,8
COc1ccccc1NC(=O)Nc1nc(CC(=O)Nc2ccc(OC)c(OC)c2)cs1,-3,-6,-8,2.2,/,8.4%,-8
O=C(Nc1nc(-c2ccccc2)c(C(=O)c2ccccc2)s1)c1ccc(S(=O)(=O)N2CCCC2)cc1,-2,-4,-2,2.3,1%,2.3%,-21
O=C(CSc1ccncc1)Nc1ccc2ccccc2c1,1,11,2,-3.0,-2%,-0.8%,-3
O=C1CCCCC(=O)[C@H](OC(=O)c2ccccc2)C[C@H](c2ccccc2)O1,0,/,-3,/,/,-0.4%,/
CN1C2CCC1CC(NC(=O)c1cccc(C(F)(F)F)c1)C2 (stereo unspecified),1,-2,-7,-1.7,7%,1.6%,-13
CCOC(=O)c1ccc(NC(=O)CSc2nnc(CNC(=O)c3ccco3)o2)cc1,-6,0,2,-1.7,12%,-1.0%,-12

# Continuation:
molecule,CtBP-E1A blk,TRPV1 potentiator,Six1-Eya2 inh,D2 ag,Sfp inh,PINK1 expr mod,D2 PAM
O=S(=O)(Nc1ccc(S(=O)(=O)Nc2ncccn2)cc1)c1ccccc1,-8,4,1,-0.3,1%,-0.3%,-4
Cc1ccccc1C(=O)c1cccn1CC(=O)NCCCN1CC(C)CC(C)C1 (stereo unspecified),1,-9,-1,-4.8,13%,-0.6%,-32
CCN(Cc1ccccc1)S(=O)(=O)c1c(C)[nH]c(C)c1C(=O)N1CCCC1,-19,-6,-9,0.4,4%,-0.3%,-8
O=C(Nc1nc2ccccc2[nH]1)c1cccc([N+](=O)[O-])c1,-12,-17,-1,1.9,30%,11%,-1
CC(C)OCCCNC(=O)CN1CCN(Cc2ccccc2Cl)C1=O,9,0,-6,-1.5,2%,0.1%,6
CCCCC(=O)N(C)c1c(CC)nc2c(OCCOc3ccccc3)cccn12,0,/,10,1.6,/,1.6%,-10
Cn1c(-c2cccc([N+](=O)[O-])c2)cnc1NCc1cccc([N+](=O)[O-])c1,/,-11,-23,-0.1,?,5.3%,-23
CC(C)CC(=O)NCCNC(=O)c1cc(OCC(F)(F)F)ccc1OCC(F)(F)F,10,-3,-5,-1.5,11%,1.1%,-17
CC(=O)N1CCN(c2ccccc2NC(=O)c2ccc(C#N)cc2F)CC1,5,12,6,5.0,4%,0.4%,2
